Rango dissoc inh – prevents RanGTP from dissociating the Rango-importin beta complex. AID 540253. Potency, µM (doses to about 46.1 µM), without a hit: at the highest dose activity change, negative = inhibition. 340,000 compounds, 0.071% hits. Biochemical FRET Rango-importin beta, RanGTP-induced dissociation. O95149+P62826; active means falling FRET ratio curve, often poorly fitted, with flat reads before Ran was added; inconclusive means other falling curves, or compound fluorescence or quenching; inactive means flat or rising ratio curve;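 also: potency is read from the fitted curve at half-maximal effect; % of control where 0% means no effect; nearly all actives have a fitted effect of over 45% in size; -100% = wells without RanGTP and RCC1; the record marks most hits as doubtful in a second field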
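FRET read at 45 min, room temperature: inhibitors block the CFP/YFP signal rise when RanGTP (0.6 uM Ran, 2 mM GTP, 0.2 uM RCC1) frees Rango (0.1 uM) from importin beta (0.25 uM). Pre-read after 5 min compound exposure flags interference.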
GLA inh pH 4.5 – blocks human alpha-galactosidase A at pH 4.5 | P06280 | purified enzyme, 4-MU-alpha-Gal fluorescence, pH 4.5 | activity change, negative = inhibition, % at 105 µM | 230,000 tested, under 10 active; inconclusive = small, poorly fitted or top-dose-only inhibition, or a rising curve; inactive = flat fitted curve, though single readings scatter; no compound was filed as active;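 also: 0% = full activity with enzyme and -100% = basal without enzyme; dose as in the result columns while the protocol names 77 µM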
Target sequence (P06280 whole entry, looked up): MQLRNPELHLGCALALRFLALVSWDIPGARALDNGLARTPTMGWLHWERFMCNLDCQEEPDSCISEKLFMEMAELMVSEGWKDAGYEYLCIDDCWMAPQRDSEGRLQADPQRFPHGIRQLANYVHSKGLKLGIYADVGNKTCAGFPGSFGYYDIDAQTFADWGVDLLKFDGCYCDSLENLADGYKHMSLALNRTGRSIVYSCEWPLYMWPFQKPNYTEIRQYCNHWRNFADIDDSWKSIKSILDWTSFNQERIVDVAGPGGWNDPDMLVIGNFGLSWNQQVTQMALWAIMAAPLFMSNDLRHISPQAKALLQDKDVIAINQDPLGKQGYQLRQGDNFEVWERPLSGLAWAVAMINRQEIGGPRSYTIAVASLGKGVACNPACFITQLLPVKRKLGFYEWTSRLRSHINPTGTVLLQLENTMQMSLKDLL
miR-21 reporter – raises the signal of a miR-21 reporter; HeLa miR-21 FLuc reporter, luciferase, 48 h; Potency, µM (highest dose often 38.3 µM), inactives show at the highest dose reporter change, positive = more light; 340,000 tested, under 10 active; AID 2288; active = well fitted rising curve with a large enough effect; inconclusive = small, poorly fitted or top-dose-only effect; inactive = no such curve, though single readings can be large or run the other way;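 also: % of control where 0% means no effect; miR-21 action dims this reporter so a rising signal means less miR-21 action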
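HeLa miR-21-FLuc reporter line, endogenous miR-21; 2000 cells/well in DMEM/10% FBS; compound titration up to ~40uM final, 48 h, 37 degree Celsius; luciferase detection reagent, 15 min lysis, CCD luminescence.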
Rango complex inh – inhibitors of Rango-importin beta complex formation | Q14974 | Rango CFP/YFP FRET sensor + importin beta, 45 min | Potency, µM (titrated, usually from 92.2 µM), for the others: at the highest dose inhibition of complex formation | 340,000 compounds, 0.031% hits; active = rising FRET ratio curve, often small or poorly fitted; inconclusive = mostly compound fluorescence or quenching in the first reads; inactive = flat curves in all reads;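 also: potency is read from the fitted curve at half-maximal effect; 0% = DMSO wells and 100% = buffer wells lacking importin beta; nearly all actives have a fitted effect of over 15% in size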
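FRET biosensor (snurportin 1 IBB flanked by EYFP and cerulean), 50 nM, with compound 5 min, then 0.125 microM importin beta in PBS, 1 mM DTT, 0.02% Tween-20, 0.1% BSA. CFP/YFP ratio read after 45 min at room temperature; pre-read flags interference.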
Numbers without * were called inactive; ? = inconclusive; / = no result given; [ ] = another dose, or the depositor's remark. Some of the compounds tested; count on the stated rates, not on these rows.

SMILES	Rango dissoc inh	GLA inh pH 4.5	miR-21 reporter	Rango complex inh
Cc1ccc(S(=O)(=O)N2CCN(c3ccc([N+](=O)[O-])cn3)CC2)cc1	12%	-12	-3%	-0.4%
COCCOC(=O)C1=C(C)N=C2SCCC(=O)N2C1c1ccc(C(=O)OC)cc1 (centres undefined)	4%	1	-4%	0.1%
CCCOc1cccc(-c2nnc(NC(=O)c3ccco3)s2)c1	-8%	/	-12%	5.4%
O=C(C=Cc1ccccc1Cl)c1ccccc1	-3%	/	/	4.5%
O=C(Nc1ccc2c(c1)nc1n2CCN(Cc2ccccc2)C1)NC1CCCCC1	0%	3	-9%	-4.4%
Cc1ccc(C(=O)N2CCN(Cc3ccc4c(c3)OCO4)CC2)c(Cl)c1	-5%	/	22%	3.7%
C/C=C1\COC(C(=O)NCc2cccc(OC)c2OC)(C(F)(F)F)C=C1C=C1CCCCC1 (centres undefined)	0%	/	/	1.1%
O=C(Cc1cccc2ccccc12)NCC(=O)N1CCN(Cc2cccc(C(F)(F)F)c2)CC1	?	/	/	0.8%
Cn1c(CN2CCOCC2)nc2cc(NC(=O)COc3ccc([N+](=O)[O-])cc3)ccc21	-10%	2	10%	-1.5%
CC(C)c1onc(C(=O)NC2CCCC2)c1[N+](=O)[O-]	-4%	-20[21.1 µM]	-1%	-0.2%
COc1ccc(CC(=O)Oc2ccccc2[N+](=O)[O-])cc1	11%	/	0%	0.1%
CCN(CC(=O)Nc1c(F)cccc1F)C(=O)c1cnc(C)cn1	12%	/	/	0.2%
O=[N+]([O-])c1cccc(S(=O)(=O)NCc2ccncc2)c1	8%	/	18%	-1.3%
CC(C)CCn1c(Oc2ccccc2Cl)nc2c1c(=O)n(C)c(=O)n2C	7%	-25	-9%	-0.1%
O=C(O)CCC(=O)N1CCc2cc(S(=O)(=O)Nc3ccc4c(c3)OCCO4)ccc21	-3%	-5	1%	0.6%
Nn1c(SCC(=O)NC(=O)NCc2ccccc2)nnc1C1CC1	11%	-2	-2%	-0.8%
CN(c1ccc(C(=O)NCCSC(C)(C)C)cc1)S(=O)(=O)c1ccccc1	-12%	1	-7%	-0.8%
Cc1cccc(NC(=O)C2CCCN(S(=O)(=O)c3c(C)nn(C)c3C)C2)n1 (centres undefined)	7%	5	5%	-7.1%
O=C(Nc1ccc2c(c1)N(S(=O)(=O)c1cccs1)CCC2)c1c(F)cccc1Cl	17%	/	/	2.5%
CC1=Nc2nc(N3CCCCCC3)c(C#N)c3c4c(nc(c23)N1)N(c1ccc2ccccc2c1)C(=O)C4	15%	/	/	-6.3%
N#Cc1c(Cl)cccc1N1CCC(C(N)=O)CC1	-12%	1	-14%	0.5%
O=C(N[C@H]1/C=C\[C@@H](O)CCCC1)OCc1ccccc1	0%	/	/	-2.9%
C[C@@H]1CC=C[C@H]2[C@H]1C(=O)N(Cc1ccccc1)[C@H]2c1ccc(Br)cc1F	2%	-16	-1%	1.4%
O=C(Cc1ccc([N+](=O)[O-])cc1)N/N=C/c1ccco1	-17%	6	3%	-3.9%
Cc1ccc2c(c1)c(N=NC(N)=O)c(O)n2C	-7%	2	0%	0.6%
O=C(NCc1ccco1)c1sc2cccc(F)c2c1Cl	0%	-2	-34%	-0.3%
CC1(C)NC(=O)N(CC(O)Cn2nnc3ccccc32)C1=O (centres undefined)	-14%	4	-5%	-1.9%
Cc1cccn2cc(-c3ccc(S(=O)(=O)N4CCOCC4)cc3)nc12	-4%	-14	-5%	2.7%
Cc1ccc(-c2n[nH]c(=S)n2/N=C\c2ccco2)cc1	7%	0	-15%	-0.7%
CCC(C)Nc1nc2c(c(=O)[nH]c(=O)n2C)n1CCC(C)C (centres undefined)	1%	-25	-3%	2.1%
CN1CCCN(C(c2ccccc2)c2ccc(Cl)cc2)CC1 (centres undefined)	-2%	-4	26%	-0.4%
O=C(COC(=O)c1c[nH]c2ccccc12)Nc1ccc(F)cc1	-15%	/	/	1.1%
COc1ccccc1C(=O)NCCCNC(=O)c1cccnc1	-9%	/	10%	-1.5%
COCCNc1nc2ccccc2n1CC(=O)c1ccc(OC)c(OC)c1	8%	/	-4%	-3.4%
COc1ccc(CCNC(=O)CSc2nc(N)c(C#N)c(-c3cccs3)c2C#N)cc1OC	0%	0	-11%	-1.0%
Cc1cccc(C(=O)Nc2cccc(C(=O)N/N=C/c3cccc(C)n3)c2)c1	-11%	/	-9%	-0.9%
CCc1nc2ccc(C(=O)O)cc2nc1CC	-13%	2	-43%	5.3%
Cc1ccc(C(=O)Nc2cccc(N(C)S(C)(=O)=O)c2)cc1S(=O)(=O)Nc1ccccc1	-6%	-11	18%	0.5%
Cc1ccc(C)c(S(=O)(=O)N2CCCC2CNC(=O)C(=O)NCCc2ccco2)c1 (centres undefined)	-4%	/	/	-3.8%
Cc1ccccc1OCCCC(=O)Nc1nccs1	0%	3	1%	-1.5%
c1ccc(-c2csc3ncnc(N4CCOCC4)c23)cc1	-5%	6	-1%	2.0%
N#Cc1c(NC(=O)C2CC(Cl)=CCC2C(=O)O)sc2c1CCCC2 (centres undefined)	5%	10	-14%	0.0%
CCCCCCNC(=O)C(C#N)c1nc2ccccc2nc1N1CCOCC1 (centres undefined)	?	-8	-6%	?
Cc1cc(C)nc(NC(=O)c2cc(Br)ccc2Cl)n1	-21%	7	2%	1.5%
Cc1cc(N2CCN(S(=O)(=O)c3ccc4c(c3)OCCO4)CC2)n2ncnc2n1	6%	3	-19%	5.8%
COC(=O)c1cc(NC(=O)Nc2ccccc2)ccc1Cl	7%	3	-7%	-0.5%
O=C(CSc1ncn[nH]1)NCCc1ccc(Cl)cc1	5%	/	-2%	-0.1%
CC(=O)n1cc([C@H]2C=C(C(=O)N3CCN(Cc4ccc5c(c4)OCO5)CC3)O[C@@H](OCc3ccc(CO)cc3)C2)c2ccccc21	-3%	-23	18%	6.0%
Cc1cccc(-n2c(SCC(N)=O)nnc2-c2ccccn2)c1C	-12%	-24	-1%	2.9%
CCc1ccccc1NC(=O)CNC(=O)CSC(=S)N1CCCC1	7%	/	/	1.4%
The list goes on:
SMILES	Rango dissoc inh	GLA inh pH 4.5	miR-21 reporter	Rango complex inh
CCOc1ccc(-c2n[nH]c(=S)n2/N=C/c2cc3c(cc2[N+](=O)[O-])OCO3)cc1	1%	-17	-11%	-1.6%
COc1ccccc1C1CN(c2ccccc2)N=C1c1cccs1 (centres undefined)	?	20	-7%	?
COc1ccc(OC)c(NC(=O)CN(Cc2ccc(Cl)cc2)S(C)(=O)=O)c1	-3%	-4	-2%	-2.9%
COc1cc(C(=O)NNC(=O)c2ccc3c(c2)OCCO3)cc(OC)c1OC	-2%	/	/	-0.4%
Cc1cnc(NC(=O)CSc2nnc(-c3ccncc3)n2C2CCCCC2)s1	12%	-1	3%	-1.4%
COc1ccc(CNc2nc(SC)n[nH]2)cc1OC	-19%	-3	-5%	2.6%
CCOC(=O)c1c2n(c3ccc(O)cc13)CCCCC2	3%	?	0%	0.0%
O=C(CON=C1c2ccccc2-c2ccccc21)NC12CC3CC(CC(C3)C1)C2	7%	3	7%	-2.4%
CCOC(=O)c1c(O)c2ccccc2oc1=O	8%	-7	2%	1.2%
O=C(c1cccnc1)N1N=C(C2CC2)CC1(O)C(F)(F)F (centres undefined)	-4%	/	2%	0.1%

Exported with bars between the fields: part of the list above
Molecule | Rango dissoc inh | GLA inh pH 4.5 | miR-21 reporter | Rango complex inh
COc1ccc(OC)c(NC(=O)CN(Cc2ccc(Cl)cc2)S(C)(=O)=O)c1 | -3% | -4 | -2% | -2.9%
CCOC(=O)c1c(O)c2ccccc2oc1=O | 8% | -7 | 2% | 1.2%

(further entries)
SMILES	Rango dissoc inh	GLA inh pH 4.5	miR-21 reporter	Rango complex inh
O=C(NC1CCCC1)C(c1ccccc1F)N(C(=O)c1csnn1)C1CC1 (centres undefined)	?	/	2%	-0.5%
CCC(=O)N1CCc2nc(-c3ccccc3)sc2C1	0%	/	-72%	-1.3%
CCCCNC(=O)[C@H]1C[C@H]1[C@@H](O)[C@H](CO)NC(=O)[C@H](Cc1ccccc1)NC(=O)OC(C)(C)C	-10%	/	1%	-0.6%
O=C(CN(c1ccc(Cl)c(C(F)(F)F)c1)S(=O)(=O)c1ccccc1)N/N=C/c1cccc2c1OCCO2	-2%	-19	1%	5.6%
O=C(CCC1N=C2c3ccccc3N=C(SCc3ccc(F)cc3)N2C1=O)NCc1ccco1 (centres undefined)	1%	-6	-2%	3.8%
O=C(CCNS(=O)(=O)c1c(Cl)cccc1Cl)OCC(=O)c1ccccc1	0%	-4	-1%	-0.5%
Cc1ccc2nc(NC3=NCN(Cc4ccccc4)CN3)nc(C)c2c1	/	-2	-7%	/
CC(=O)N1N=C(c2cccnc2)OC1c1ccc(C(C)C)cc1 (centres undefined)	0%	-3	1%	-1.2%
Fc1ccc(-c2csc(-c3cccnc3)n2)cc1F	-8%	/	-20%	4.2%
COc1ccc2c(c1)C1CC(C)(NC(=O)C1C(=O)c1ccccc1)O2 (centres undefined)	-3%	-3	0%	0.3%

Three of the entries above in order of the Rango dissoc inh value, highest first:
SMILES	Rango dissoc inh	GLA inh pH 4.5	miR-21 reporter	Rango complex inh
O=C(CCNS(=O)(=O)c1c(Cl)cccc1Cl)OCC(=O)c1ccccc1	0%	-4	-1%	-0.5%
Fc1ccc(-c2csc(-c3cccnc3)n2)cc1F	-8%	/	-20%	4.2%
CCCCNC(=O)[C@H]1C[C@H]1[C@@H](O)[C@H](CO)NC(=O)[C@H](Cc1ccccc1)NC(=O)OC(C)(C)C	-10%	/	1%	-0.6%

Carrying on.
SMILES	Rango dissoc inh	GLA inh pH 4.5	miR-21 reporter	Rango complex inh
Cc1[nH]n(-c2cccc([N+](=O)[O-])c2)c(=O)c1-c1ccccc1	-9%	8	-10%	-1.1%
CN(CC(=O)N1CCN(Cc2ccccc2)CC1)S(=O)(=O)c1ccc(F)cc1	-12%	/	-9%	1.0%
Cc1onc(-c2ccccc2Cl)c1C(=O)Nc1ccc(Cl)cn1	8%	-3	-10%	-2.6%
O=C(CN1C(=O)NC2(CCCC2)C1=O)Nc1nc2ccccc2s1	8%	/	/	-1.4%
COC(=O)c1ccc(S(=O)(=O)c2ccccc2)c(N)c1	1%	28	0%	?
COc1ccc(OC)c(S(=O)(=O)N2CCC(C(=O)N3CCN(Cc4ccccc4)CC3)CC2)c1	-6%	-1	18%	4.7%
COc1ccc(S(=O)(=O)CCC(=O)N2c3ccccc3CC2C)cc1 (centres undefined)	14%	-6	-2%	0.0%
COc1ccc(-n2c(N)c(Br)c(=O)[nH]c2=O)cc1	6%	-9	-1%	?
Cn1c(CCNC(=O)c2ccc(Cl)cc2)n[nH]c1=S	-13%	8	-15%	-0.5%
CN1CCCC(CC2Oc3ccccc3Sc3ccccc32)C1 (centres undefined)	3%	-16	6%	1.6%
COc1cccc(/C=N/NC(=O)C(C)Cn2cnc3ccccc32)c1 (centres undefined)	0%	-1	4%	-2.0%
O=C(N=C1SC2CS(=O)(=O)CC2N1CCc1ccc(F)cc1)C1CCCCC1 (centres undefined)	-12%	/	1%	-0.7%
Cc1ccc(S(=O)(=O)N2CCOCC2)cc1C(=O)Nc1cccc(C(=O)NC2CC2)c1	1%	/	/	-3.2%
CS(=O)(=O)c1ccc(S(=O)CC(=O)OCc2ccccc2)c([N+](=O)[O-])c1 (centres undefined)	5%	1	?	-2.7%
Cn1c(=N)n(CC(=O)c2ccc(Br)cc2)c2ccccc21	-5%	/	/	0.4%
C=C(C)CN(CC)C(=O)CSc1ccc(S(=O)(=O)N2CCN(C)CC2)cn1	-10%	/	/	0.4%
COc1ccc(C(=O)N/N=C/c2ccc(OC)c(COc3ccccc3)c2)cc1	-11%	/	-7%	0.3%
Cc1ccc(OCC(=O)Nc2ccc3c(c2)C(=O)NC3=O)c(C)c1	15%	/	-1%	-2.0%
O=C(NCC(c1ccco1)N1CCCC1)c1cn(Cc2ccccc2)nc1-c1ccccc1 (centres undefined)	10%	/	/	-1.1%
O=C1NC(=O)/C(=C\c2ccccc2OCc2ccc([N+](=O)[O-])cc2)N1	?	-4	-6%	?
CCOC(=O)c1c(NC(=O)C(F)(OC)C(F)(F)F)sc(C(=O)N2CCCCC2)c1C (centres undefined)	-8%	-14	-9%	1.3%
Cc1ccc(S(=O)(=O)NCC(=O)N(CC(=O)NCc2ccco2)Cc2ccc3c(c2)OCO3)cc1	-8%	-1	-2%	-0.3%
